RecA splice inh: Mtb RecA intein splicing inhibition; P9WHJ3; cell-free RecA intein splicing, fluorescence; inhibition, %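 (about 9 µM by stock and volumes)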; 0.75% of 290,000 active; AID 2221; in the data active = inhibition above about 30%;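 note: 0% = vehicle wells and 100% = reference inhibitor control wells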
Target sequence (P9WHJ3 whole entry, looked up, canonical isoform): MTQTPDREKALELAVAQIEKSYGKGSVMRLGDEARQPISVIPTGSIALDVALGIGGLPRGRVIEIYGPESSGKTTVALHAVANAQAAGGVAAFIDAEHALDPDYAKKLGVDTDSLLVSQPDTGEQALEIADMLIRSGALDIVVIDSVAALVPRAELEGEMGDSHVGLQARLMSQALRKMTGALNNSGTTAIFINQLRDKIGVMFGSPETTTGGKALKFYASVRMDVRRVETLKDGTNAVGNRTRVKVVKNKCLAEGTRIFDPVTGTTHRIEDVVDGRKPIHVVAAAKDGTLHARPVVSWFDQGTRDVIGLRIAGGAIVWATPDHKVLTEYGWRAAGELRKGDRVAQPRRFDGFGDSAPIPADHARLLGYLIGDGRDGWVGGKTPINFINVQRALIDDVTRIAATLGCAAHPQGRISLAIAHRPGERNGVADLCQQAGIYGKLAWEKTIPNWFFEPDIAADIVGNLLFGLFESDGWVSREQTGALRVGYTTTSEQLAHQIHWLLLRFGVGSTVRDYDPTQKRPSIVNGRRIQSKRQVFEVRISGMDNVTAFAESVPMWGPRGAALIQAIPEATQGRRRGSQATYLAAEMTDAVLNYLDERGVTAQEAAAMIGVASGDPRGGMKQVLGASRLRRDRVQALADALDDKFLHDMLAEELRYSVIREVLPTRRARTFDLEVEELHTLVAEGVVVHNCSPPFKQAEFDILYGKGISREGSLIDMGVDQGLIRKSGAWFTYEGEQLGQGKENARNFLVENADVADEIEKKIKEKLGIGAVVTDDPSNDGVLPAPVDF
Arbovirus anti: arbovirus infection inhibition. arbovirus infection cell-based antiviral screen. inhibition, % at 10 µM. 0.37% of 200,000 active. AID 1251;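 active = inhibition from about 30%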;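 note: bluetongue infection of BSR cells; cell survival read as ATP light after 72 h; 0% = infected wells without compound and 100% = uninfected wells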
Mtb betalactam: beta-lactam sensitization of Mtb H37Rv; M. tuberculosis H37Rv growth with meropenem, percent inhibition; hits of this screen are not shown here; 0.27% of 330,000 active; AID 434955; inhibition, % at 25 µM;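 active = about 74% or more and at least 40 points above the plate without the antibiotic, then above 30% in a dose series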;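 note: growth measured after seven days incubation then overnight dye step; 0% = bacteria only wells and 100% = bacteria with antibiotic; twin plates without the antibiotic show which effects depend on it; some results filed as inactive read as strong as hits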
Mtb growth: M. tuberculosis H37Rv growth inhibitors, H37Rv strain (AID 1626) | M. tuberculosis H37Rv growth inhibition; higher % means a stronger effect | inhibition, % at 10 µM; hits with a dose series show IC50 in µM | 0.95% of 220,000 active;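 active = confirmed in a dose series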;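 note: bacteria incubated seven days before Alamar blue readout; 0% = bacteria only wells and 100% = bacteria with antibiotic wells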
YopH inh: inhibitors of Yersinia enterocolitica YopH tyrosine phosphatase | inhibition, %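 (about 10 µM by stock and volumes)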 | 0.16% of 140,000 active | AID 898 | fluorescence Ex485/Em525;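 active = inhibition of 50% or more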;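 note: controls were vehicle for no effect and minimum signal wells for full effect; inactives centre near -20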
Arbovirus anti repeat: further read-out of Arbovirus anti, marked with its call; inhibition, %; measured here: 10K subset replicate screen; many hits read low in the repeat;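 first of two repeat runs on a subset; 0% = infected and 100% = uninfected wells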
Active calls of the source: *; . = no result given.

SMILES	RecA splice inh	Arbovirus anti	Mtb betalactam	Mtb growth	YopH inh	others
CC1CN(C(=O)COC(=O)COc2ccc(C#N)cc2)CC(C)O1 (stereo unspecified)	-2.2	.	1	.	.
O=C(OCC(=O)N1CCCC1)c1ccc(Cl)c([N+](=O)[O-])c1	-0.4	.	-6	.	.
CC(C)CC(=O)Nc1ccc(C(=O)Nc2cccc(O)c2)cc1	-2.4	-4	4	2%	.
COc1ccc(/C=N/NC(=O)c2ccoc2C)cc1O	-0.9	3	2	1%	-22
Cc1ccc(-n2nc3c(c2NC(=O)c2cccs2)CSC3)cc1	1.9	10	0	3%	-38
CC(=O)Nc1ccc(NC(=O)c2ccc(COc3ccc4c(C)cc(=O)oc4c3)cc2)cc1	1.9	-8	7	-4%	-6
Cc1ccc(N2C(=O)N(CC(=O)Nc3ccc(C)c(C)c3)C(=O)C2C)cc1 (stereo unspecified)	1.4	.	-7	.	.
CC1CCN(S(=O)(=O)c2ccc(N=NC3=C(O)CC(C)(C)CC3=O)cc2)CC1	-1.5	-9	8	1%	-14
COCCCn1cnc2c(c1=O)c1nc3ccccc3nc1n2CCc1ccccc1	-4.8	-17	.	.	-26
O=C(CCN1C(=O)/C(=C/c2ccccc2F)SC1=S)Nc1ccccn1	-0.7	.	77	.	.
COc1ccccc1C(=O)NCCn1cc(SCC(=O)NCc2ccco2)c2ccccc21	4.1	7	0	2%	-46
O=C(NCCCN1CCCC1=O)c1ccc(OC(F)(F)F)cc1	-1.2	14	-4	6%	.
Cc1onc(-c2ccccc2Cl)c1C(=O)Nc1ccccc1N1CCOCC1	-1.9	-2	-8	1%	-5
O=C(c1cc(COc2ccc(F)cc2Cl)on1)N1CCCC(OCc2cccnc2)C1 (stereo unspecified)	0.1	7	7	13%	.
COc1nc(C#N)nc(N(C)C)n1	-1.2	6	16	-3%	-46
O=[N+]([O-])c1ccc(NCCCNS(=O)(=O)c2ccccc2)cc1	6.6	6	-2	-5%	.
CN1C(=O)CSC1=S	1.5	.	-6	.	.
O=C(O/N=C/c1ccc(Cl)cc1)C1CCCCC1	3.5	.	2	.	.
Cc1cc(C)c(Cn2c3ccccc3c3cnn(CC(=O)NCc4ccccn4)c(=O)c32)c(C)c1	0.3	.	7	.	.
COc1ccc(NC(=S)N2CCCN(Cc3cc(C)ccc3C)C2)cc1	0.2	3	0	7%	.
CC(C)CCSc1nc(N)c(C#N)cc1C#N	-10	-2	-8	4%	-5
CCCCc1nc(Cl)c(C#N)c2c1CCC2	0.0	.	0	1%	.
Cc1ccc(S[C@@H](CCN2CC[C@H](C)CCC2=O)c2ccccc2)cc1	30*	.	-3	.	.
CC(=O)N/C(=C/c1ccc(OS(=O)(=O)c2ccc(C)cc2)cc1)C(=O)NCCO	-1.3	1	-6	-8%	-29

A portion from the list above:
SMILES	RecA splice inh	Arbovirus anti	Mtb betalactam	Mtb growth	YopH inh	others
O=[N+]([O-])c1ccc(NCCCNS(=O)(=O)c2ccccc2)cc1	6.6	6	-2	-5%	.
CN1C(=O)CSC1=S	1.5	.	-6	.	.
O=C(O/N=C/c1ccc(Cl)cc1)C1CCCCC1	3.5	.	2	.	.

The list goes on.
SMILES	RecA splice inh	Arbovirus anti	Mtb betalactam	Mtb growth	YopH inh	others
CC(C)[C@H]1C=C(C(=O)O)O[C@@H](OCc2ccc(CO)cc2)C1	-2.2	.	-8	-3%	.
Cc1ccc(Cn2c(C3CCCN3c3nc(C)cs3)nc3cc(C(=O)NCCCO)ccc32)cc1 (stereo unspecified)	-0.4	.	2	-2%	.
COc1cc(/C=N/Nc2ccc(Cl)nn2)cc(OC)c1O	-5.1	.	-1	.	.
CCOC(=O)C(=O)N(Nc1ccccc1C)c1ccccc1C	2.9	0	4	-3%	.
CC(C)CCNC(=O)COc1ccc(C(=O)c2ccccc2)cc1	2.0	-1	-6	8%	.
Cc1nnc2sc(SCC(=O)Nc3ccc(Cl)cc3)nn2c1=O	0.6	-12	-8	1%	.
CSc1ccccc1NC(=O)c1ccc(C)o1	4.1	-2	4	-1%	-24
O=C(C[n+]1ccc(/C=C/c2ccccc2)cc1)c1ccc2c(c1)OCCO2	0.7	.	91	76%	.
COc1ccc(-c2ccc(=O)n(Cc3ccccc3)n2)cc1	5.1	.	-1	.	.
CN(C)CCCN(C(=O)c1ccc(S(=O)(=O)N(C)C2CCCCC2)cc1)c1nc2ccc(F)cc2s1	4.9	.	-3	.	.
CCN1CCN(C(=O)c2nn(-c3ccccc3)c(=O)c3ccccc23)CC1	0.1	1	-8	-13%	-4
O=c1c(-c2cccc3ccccc23)[n+]([O-])c2ccccc2n1O	-9.0	5	-5	-7%	-49
COc1ccc(/C=N/NC(=O)c2cc(O)c(O)c(O)c2)cc1Cn1cc([N+](=O)[O-])cn1	-3.1	-12	.	-1%	.
Cc1cc(C)cc(N(C(=O)C2CCCC2)C2C=CS(=O)(=O)C2)c1 (stereo unspecified)	0.3	3	1	-2%	-32
Cc1ccc(C)c(S(=O)(=O)Nc2cc(SCC(=O)O)c(O)c3ccccc23)c1	.	-28	9	-1%	3
COc1ccccc1-c1nc(S(=O)(=O)c2ccc(Cl)cc2)c(N(C)C)o1	-0.2	0	6	-7%	-19
Cc1cc(-c2n[nH]c(=S)n2Cc2ccco2)nn1C	3.5	-7	1	3%	-25
O=C(COC(=O)c1ccccc1Oc1ccccc1)NC1CCS(=O)(=O)C1 (stereo unspecified)	1.0	11	-11	12%	-19
CCOC(=O)CC1C(=O)NCCN1c1nc2ccc(C)cn2c(=O)c1/C=C1\SC(=S)N(CC(C)C)C1=O (stereo unspecified)	-4.2	.	-6	1%	.
O=[N+]([O-])c1cc(S(=O)(=O)N2CCCC2)ccc1N/N=C1/CCCc2ccccc21	-1.3	-1	3	8%	-27
C=CCc1cccc2cc(C(=O)N3CCN(C(=O)c4ccccc4)CC3)c(=O)oc12	1.2	.	-8	.	.
CC1=CC(=O)C(C(C)C)=C/C1=N\OC(=O)c1cccc2nc(C)oc12	1.6	6	5	-5%	-26
COC(=O)C1Sc2[nH]c(=O)sc2C2c3ccccc3OC(=O)C12 (stereo unspecified)	-2.3	-3	-12	2%	-1
Cn1nccc1C(=O)N1CCN(c2cccc(C(F)(F)F)c2)CC1	-4.0	.	-2	.	.
COc1cc(/C=N/N2C(=O)CSC2=S)cc(Br)c1O	.	-1	.	7%	.
Cc1ccc(CNC(=O)c2c(C)cc(=O)oc2C)cc1	-6.1	3	-8	1%	-4
Cc1cc(C(C)C)n2c(nc3ccccc32)c1C#N	-19	1	1	-1%	.
CC(=O)Nc1cccc(C(=O)OCc2ccc([N+](=O)[O-])cc2)c1	-1.5	-1	-4	1%	.
COc1cc2nc(Nc3ccc(C)c(Cl)c3)nc(N)c2cc1OC	24	.	100	.	.
O=C(COC(=O)CNS(=O)(=O)c1ccc(Br)cc1Cl)NCCc1ccccc1	1.9	.	-18	.	.
CCc1cccc(NC(=O)Cn2cccc2)c1	-1.0	-1	33	4%	-27
CSc1nnc(-c2ccc(O)cc2)n1C	-0.1	1	-5	-1%	-19
O=C(c1ccc(Br)o1)N(c1ccccn1)C1CCCCC1	-1.8	-5	-2	2%	-22
CCOC(=O)Cn1c(=O)oc2cc(S(=O)(=O)N3CCN(c4ccccn4)CC3)ccc21	1.1	9	3	-3%	-11	Arbovirus anti repeat=5
Cn1c(SCc2cccc3ccccc23)nnc1-c1ccco1	4.2	8	-9	5%	33
O=Cc1ccc(-c2ccccc2C(=O)O)o1	-1.0	8	1	-5%	.
COc1ccc(N(CC(=O)N2CCCC2)S(C)(=O)=O)cc1	-0.3	.	-3	.	.
O=C(NCCCN1CCOCC1)c1cc(-c2ccc(Br)cc2)nc2ccccc12	1.1	.	-5	.	.
CC(=O)Nc1ccc(NC(=O)CCC(=O)Oc2ccc(C)cc2)cc1	1.4	.	-8	.	.
Cc1ccc(S(=O)(=O)N(C)c2ccc(OCC(=O)OCc3c(C)noc3C)cc2)cc1	3.9	-18	83	0%	-43
COc1ccc(-c2cc(C(=O)NNC(=S)NC(=O)c3c(-c4ccccc4)noc3C)[nH]n2)cc1	4.3	-23	-3	22%	.
CC(C)(C)OC(=O)N[C@@H](Cc1c[nH]c2ccccc12)c1nnc(SCC(N)=O)o1	0.1	6	-2	-3%	-39
COc1cc([C@@H]2c3cc4c(cc3[C@@H](O)[C@H]3COC(=O)[C@H]23)OCO4)cc(OC)c1O[Si](C)(C)C(C)(C)C	5.1	.	-6	4%	.
O=C(NC(Cc1ccccc1)C(=O)N1CCCCC1)c1ccccc1 (stereo unspecified)	1.0	.	2	.	.
O=C(Nc1ccccc1Cl)OCc1cncs1	2.6	-3	-2	2%	.
Cc1ccc(-c2c(C(=O)N/N=C/c3cccs3)nnn2-c2nonc2N)cc1	0.5	.	-2	.	.
CO/N=C/c1ccc(N2CCCC2)c([N+](=O)[O-])c1	5.4	-7	-3	6%	.
CN1CCN(S(=O)(=O)c2ccc(NC(=S)NC(=O)C3CCCC3)cc2)CC1	6.6	10	-8	-1%	.
Cc1cccc(Nc2nc(N)nc(CN3CCN(C)CC3)n2)c1	0.2	-2	2	-14%	-47
CCOc1cc2[nH]c(=O)n(CCC(=O)NCCc3ccccc3)c(=O)c2cc1OCC	.	-3	1	1%	-52
CCC(C(=O)NC1CCCC1)N(C(=O)Cn1nnc(-c2ccc(C)o2)n1)c1cccc(OC)c1 (stereo unspecified)	-0.1	.	-5	.	.
NC1CCN(c2c(F)cc3c(=O)c(C(=O)O)cn(C4CC4)c3c2Cl)C1 (stereo unspecified)	-0.5	.	100	<0.39µM*	.
CCCCCCSc1nnc(N)s1	-0.5	.	90	65%	.
O=C(CN(C1CCCCC1)S(=O)(=O)c1ccccc1)N1CCCC1	0.4	6	-9	-9%	11	Arbovirus anti repeat=8
COc1ccc(CNC(=O)Cc2ccc(NC(=O)C3=C(C)OCCS3)cc2)cc1	1.7	.	8	.	.
Cc1nn2c(-c3ccc(F)cc3)ccnc2c1Cl	-2.4	.	0	.	.
CCOc1nc(-c2ccccc2O)nc2ccccc12	2.3	7	0	12%	-26
CCCn1c(SCC(=O)NC)nnc1C(C)C	2.5	1	-10	-4%	-50
Cc1[nH]c2ccccc2c1CCN(Cc1cccnc1)C(=S)Nc1cccc(F)c1	9.4	8	51	10%	.
COc1ccc(C23NCCN2C(=O)c2ccccc23)cc1 (stereo unspecified)	1.3	.	-2	.	.
Later entries
SMILES	RecA splice inh	Arbovirus anti	Mtb betalactam	Mtb growth	YopH inh	others
O=C(Cc1cccc2ccccc12)N/N=C/C=C/c1cccc([N+](=O)[O-])c1	5.4	0	66	28%	-7
Fc1ccc(-c2nnc3sc(C4COc5ccccc5O4)nn23)cc1 (stereo unspecified)	2.8	3	79	21%	-32
Cc1cn(S(=O)(=O)c2ccc(Cl)cc2)c(C)n1	-1.2	1	6	9%	.
O=C(Nc1ccc(C(=O)O)cc1)/C(=C\c1ccc2c(c1)OCO2)NC(=O)c1ccc(Br)o1	-0.5	1	-2	-4%	.
Cc1ccccc1CS(=O)(=O)c1ncc(Cl)c(C(=O)Nc2ccc(F)cc2)n1	34*	.	1	.	.
Cc1ccc(OCc2cc(C(=O)NCc3cnn(-c4cccc(F)c4)c3)no2)cn1	1.9	.	5	.	.
CC(C)C1N(C(N)=S)N=CC1(C)C (stereo unspecified)	-3.5	.	6	-6%	.
Cc1cccc(-n2ncc3c(Nc4ccc(F)cc4)ncnc32)c1	3.3	0	0	8%	.	Arbovirus anti repeat=5
C=CCN1c2ccccc2[C@]23C[C@@H](C(=O)OC)N(C(=O)c4cc(C)oc4C)C2=NC(C(=O)OC)=C(C(=O)OC)[C@H]13	6.4	.	-1	-8%	.
OC(COc1ccc2c(c1)OCO2)CN1CCN(c2ccc(F)cc2)CC1 (stereo unspecified)	-2.1	-7	-2	1%	.
CCc1nnc(NS(=O)(=O)c2ccc(NC(=O)c3ccc(Cl)cc3)cc2)s1	-2.2	1	3	2%	.
CN(CC(=O)Nc1ccc(F)c(Cl)c1)S(=O)(=O)c1ccc2c(c1)n(C)c(=O)c(=O)n2C	-0.8	.	2	.	.
O=C(c1ccc(OC2CCN(CCc3ccccc3)CC2)cc1)N1CCCC1	1.8	.	-10	.	.
Cc1ccccc1NC(=O)c1cnn(-c2ccccc2)c1C	-3.4	.	6	.	.

Looked up by structure from above:
SMILES	RecA splice inh	Arbovirus anti	Mtb betalactam	Mtb growth	YopH inh	others
Fc1ccc(-c2nnc3sc(C4COc5ccccc5O4)nn23)cc1 (stereo unspecified)	2.8	3	79	21%	-32
CCc1nnc(NS(=O)(=O)c2ccc(NC(=O)c3ccc(Cl)cc3)cc2)s1	-2.2	1	3	2%	.
CC(C)C1N(C(N)=S)N=CC1(C)C (stereo unspecified)	-3.5	.	6	-6%	.
Cc1cn(S(=O)(=O)c2ccc(Cl)cc2)c(C)n1	-1.2	1	6	9%	.
O=C(Cc1cccc2ccccc12)N/N=C/C=C/c1cccc([N+](=O)[O-])c1	5.4	0	66	28%	-7

A portion of the library; count on the stated rates, not on these rows.
